Source: PubChem
MT1-MMP act inh: MT1-MMP (human) activation inhibition | P50281 | HT1080 RFP-PRO-GFP cells, GFP/RFP ratio fluorescence, overnight; percent of plate control window, DMSO zero | GFP/RFP ratio change, % at 20 µM | 360,000 tested, 0.061% active | AID 651647;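 active = GFP/RFP ratio change of at least 30% with cell ATP level not reduced by more than half and red fluorescence within 50% of control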; also: strong numbers were not always called active
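Material: RFP-PRO-GFP reporter HT1080 cells. Dosing: single-point 20 µM compound, 1% DMSO. Controls: DMSO and RFP-L50D-GFP cell wells. Timing: cells overnight before dosing, compound overnight, 37 °C, 5% CO2. Measure: GFP/RFP fluorescence ratio.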
CSC inhib: cancer stem cell inhibition. cancer stem cell-like cells viability, luminescence. inhibition, % at 7.5 µM. 300,000 tested, 1.1% active. AID 2717;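 active = mean at 75% or more and at least half the replicates too; inconclusive = mean and replicates disagree; tested in HMLE shEcad cells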;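 also: 0% = median of negative and 100% = median of positive control wells; the first replicate is given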
Rce1 inh: inhibitors of yeast Ras-converting enzyme. Q03530. yeast membranes, quenched prenylated peptide cleavage fluorescence. calls only. 290,000 tested, 0.27% active. AID 2563;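 active = fall in fluorescence gain of 50% or more versus controls, with final raw signal at or below 3038400; inconclusive = same 50% fall but final raw signal above 3038400; inactive = fall in fluorescence gain under 50%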;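 also: plate controls were neutral control wells for no effect and wells lacking membranes for full effect; tested at 10 µM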
Target sequence (Q03530 whole entry, looked up): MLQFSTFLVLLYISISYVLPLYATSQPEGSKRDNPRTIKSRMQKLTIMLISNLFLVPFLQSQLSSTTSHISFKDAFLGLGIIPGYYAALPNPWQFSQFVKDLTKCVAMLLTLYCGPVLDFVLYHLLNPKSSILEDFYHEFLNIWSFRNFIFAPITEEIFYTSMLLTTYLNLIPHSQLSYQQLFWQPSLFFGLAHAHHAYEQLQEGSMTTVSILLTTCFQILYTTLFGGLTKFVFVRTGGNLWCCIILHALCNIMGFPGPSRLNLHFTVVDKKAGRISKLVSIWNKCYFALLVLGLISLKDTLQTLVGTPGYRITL
UUG fidelity: modulators of start codon recognition fidelity in yeast. activity score, % at 18.7 µM. 350,000 tested, 0.13% active. AID 602363. S. cerevisiae UUG-firefly luciferase reporter, luminescence/redox ratio;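 active = replicate mean at a twofold rise or more, about +100% in these data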;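 also: firefly luciferase made from a UUG start codon reports start codon fidelity; reporter light over untreated wells divided by growth signal over untreated wells; some hits fall short of that in this replicate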
eIF4H inh: inhibitors of RNA binding by human eIF4H | Q15056 | 290,000 tested, 0.94% active | AID 2012 | inhibition, % at 35 µM | eIF4H fluorescence polarization binding assay;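 active = 50% or more with normal probe brightness, or confirmed in later tests; inconclusive = above 50% with abnormal brightness, or retests that disagree; inactive = below 50% or failed in later tests; about a fifth of its hits are not listed in these tables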;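 also: calls also rest on retests at 20 µM and on dose response follow-up; 0% = protein and probe with vehicle and 100% = probe without protein; strong numbers were not always called active; many hits fall short of the cut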
HIV Env fusion: blocks HIV Env-driven cell-cell fusion | HeLa-JRFL Env/CEM21 cell fusion, luciferase | inhibition, % at 12.3 µM | 360,000 tested, 1.1% active | AID 651610;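 active = mean replicate inhibition score of at least 50 and every replicate individually at or above 50; inconclusive = only one of the two criteria met; inactive = mean below 50 and not all replicates reaching 50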;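 also: 0% = plate neutral controls and 100% = maraviroc near 300 nM; one replicate is shown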
PABP polyA inh: blocks human PABP binding to poly(A) RNA | AID 2014 | 290,000 tested, 1% active | fluorescence polarization | inhibition, % at 35 µM;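 active = 50% or more with normal probe brightness, or confirmed in later tests; inconclusive = above 50% with abnormal brightness, or retests that disagree; inactive = below 50% or failed in later tests; about a fifth of its hits are not listed in these tables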;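 also: calls also rest on retests at 20 µM and on dose response follow-up; controls were probe without protein and protein plus probe with vehicle; some compounds called inactive have numbers as strong as hits; many hits fall short of the cut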
eIF4H inh retest: recorded beside eIF4H inh, whose call it bears; inhibition, %; compound at 20 µM; confirmation average;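 mean of two retest wells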
PABP polyA inh retest: also measured in PABP polyA inh; calls as there; inhibition, %; compound at 20 µM; confirmation repeats;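 mean of two retest wells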
MT1-MMP act inh RFP: also measured in MT1-MMP act inh; calls as there; RFP signal change, %; measured here: RFP expression control read;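 0 = vehicle wells; hits needed this value within 50% of zero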
* marks the source's active call; other numbers are inactive results; i = inactive; u = inconclusive; x = not tested or not shown; & = joins results of further samples.

SMILES | MT1-MMP act inh | MT1-MMP act inh RFP | CSC inhib | Rce1 inh | UUG fidelity | eIF4H inh | HIV Env fusion | PABP polyA inh | others
CCCN(CC(=O)Nc1ccccc1C)C(=O)CCNC(=O)c1ccccc1Cl | -3 | 1 | -4 | i | x | x | -27 | x
COc1ccc(OCc2cc(C(=O)NC(C)Cc3cnccn3)no2)c(Cl)c1 (centres undefined) | 0 | -2 | -6 | i | -12 | -16 | -35 | 4
CC(C)n1c(CN(C)c2ccccc2)nc2ccccc21 | -2 | -10 | 14 | i | -12 | -6 | 21 | 4
C[C@H](CO)NC(=O)[C@H](C)[C@H]1C[C@]1(C)[C@H](NC(=O)OCc1ccccc1)c1ccccc1 | 1 | -1 | 2 | i | 3 | -2 | 21 | 10
Nc1c(N2CCCC2)c2ccccc2oc1=O | 3 | 2 | -9 | x | 1 | -10 | -2 | -7
COCCCn1c(-c2ccccc2)nc2ccccc2c1=O | 0 | -2 | -7 | i | -7 | -4 | x | 1
O=C(C1CCCCC1)N1CCc2[nH]c3ccc(F)cc3c2C1 | 4 | 1 | -10 | i | x | 8 | -29 | 14
CC(=O)Nc1ccc(NC(=O)C(C)OC(=O)CSCc2cccc(Cl)c2)cc1 (centres undefined) | 0 | 4 | -2 | i | 3 | x | 10 | x
O=C(Nc1ccc(F)cc1)c1nc(S(=O)(=O)Cc2ccccc2)ncc1Cl | -1 | -4 | 108* | i | -25 | x | 10 | x
COC(=O)c1c(NC(=O)CSc2ncnc3[nH]ncc23)sc2c1CCC2 | 2 | 3 | -15 | i | x | 1 | -13 | 7
CC(=O)Nc1c(Cl)cc(Cl)c2c1Cc1cc(Cl)ccc1-2 | -8 | -2 | x | x | -2 | x | -63 | x
Cc1cc(C(=O)OCC(=O)N2CCOCC2)ccc1[N+](=O)[O-] | -2 | 3 | -3 | i | x | 5 | 3 | 21
O=C(Nc1nnc(-c2ccco2)o1)c1ccc2ccccc2c1 | 4 | 5 | 11 | i | x | 27 | -15 | 18
O=S(=O)(N/N=C\C=C\c1ccccc1)c1ccc(Br)cc1 | -1 | 6 | -3 | i | -4 | 2 | x | 1
CC(C)CNC(=O)COC(=O)/C=C/c1ccco1 | 3 | 3 | -6 | i | x | 22 | -13 | -15
COc1ccc(-c2csc(NC3CCCCC3)n2)c(OC)c1 | -1 | 11 | 2 | i | -14 | 15 | 12 | -2
CC1=NN(C(N)=S)C(=O)C1N=Nc1ccccc1C(=O)O (centres undefined) | -2 | -2 | -23 | i | -31 | 3 | 9 | -2
CCN(CC)CCCNC(=O)C(C)n1c2ccccc2c2nc(=O)cc(C)n21 (centres undefined) | -2 | 3 | -3 | i | -7 | 7 | 2 | -2
O=C(Nc1ccc(F)cc1F)c1cc2ncc(Br)cn2n1 | x | x | x | i | x | 5 | x | 17
CC[C@@H](C)[C@@H]1CN([C@@H](CN2CCC[C@H]2CN2C(N)=NC[C@@H]2Cc2ccccc2)C(C)C)C(=N)N1CCCC1CCCC1 | 0 | -6 | -15 | x | 8 | x | x | x

Reprinted from the part before: 3 entries, then new ones.
SMILES | MT1-MMP act inh | MT1-MMP act inh RFP | CSC inhib | Rce1 inh | UUG fidelity | eIF4H inh | HIV Env fusion | PABP polyA inh | others
CCN(CC)CCCNC(=O)C(C)n1c2ccccc2c2nc(=O)cc(C)n21 (centres undefined) | -2 | 3 | -3 | i | -7 | 7 | 2 | -2
O=C(Nc1ccc(F)cc1F)c1cc2ncc(Br)cn2n1 | x | x | x | i | x | 5 | x | 17
CC[C@@H](C)[C@@H]1CN([C@@H](CN2CCC[C@H]2CN2C(N)=NC[C@@H]2Cc2ccccc2)C(C)C)C(=N)N1CCCC1CCCC1 | 0 | -6 | -15 | x | 8 | x | x | x
c1ccc(-c2ccc(CN3CCN(c4ncccn4)CC3)cc2)cc1 | 0 | -1 | -2 | i | -15 | -2 | -13 | 18
Cc1ccc(CNC(=S)Nc2cc(C(=O)O)ccc2C)cc1 | -2 | 0 | -3 | i | x | 7 | 13 | -8
CSc1nnc(C)c(=O)n1COC(=O)c1ccc(S(=O)(=O)N2CCCC2)cc1 | 3 | 1 | -1 | i | x | 8 | 10 | 9
CC(C)CC(=O)NC(=S)NNC(=O)c1ccc([N+](=O)[O-])cc1 | 1 | -1 | -9 | i | x | 6 | x | 1
CCn1c(O)c(N=Nc2ccc(Cl)c(C(=O)O)c2)c2ccccc21 | -4 | -5 | -3 | i | 3 | 5 | -9 | 12
COc1cccc(C(=O)Oc2ccc(/C=N/Nc3ccc(C(=O)O)cc3)cc2OC)c1 | 7 | -2 | -6 | i | -15 | -2 | -5 | -4
COc1ccccc1C(C)NC(=O)c1ccc(NC(=O)CC2SC(N3CCCC3)=NC2=O)cc1 (centres undefined) | -5 | -2 | x | x | -4 | x | 9 | x
O=C1CCC(C(=O)OCC(=O)Nc2ccc(OC(F)F)cc2)=NN1 | -2 | 3 | x | x | -10 | x | -3 | x
COCc1cc(C)nc2sc(C(=O)Nc3nccs3)c(N)c12 | 2 | 4 | 1 | i | -2 | -12 | -31 | 14
COc1ccc(C2=NNC(c3cccnc3)=Nc3ccc(OC)cc32)cc1 | -3 | -2 | -4 | i | -20 | 4 | -2 | 10
COc1ccc(-c2nc3cc(C)c(Br)c(C)n3c2Cc2ccccc2)cc1OC | 1 | -5 | x | x | -12 | x | 71* | x
Nn1c(C2CCCCC2)nc2ccccc2c1=O | 15 | 0 | -19 | i | -3 | -2 | 10 | 8
COc1ccccc1N1CCN(C(=O)c2sc3nc(-c4ccccc4)cn3c2C)CC1 | 3 | -9 | -17 | i | 11 | -6 | x | -2
CCNS(=O)(=O)c1ccc2nc(NC(=O)/C=C/c3cc(OC)c(OC)c(OC)c3)sc2c1 | 0 | 0 | 45 | i | x | 4 | -3 | 2
CCCc1cc(=O)[nH]c(SCC(=O)N(CC)c2c(N)n(Cc3ccccc3)c(=O)[nH]c2=O)n1 | 0 | 2 | 1 | i | -3 | x | -5 | x
O=C(CCc1ccccc1)Nc1nc2nc(-c3ccccc3)cc(=O)n2[nH]1 | -1 | 0 | -9 | i | -16 | -4 | -8 | 0
Cc1ccc(C(=O)NNC(=O)C(C)Sc2nc(N)cc(N)n2)cc1 (centres undefined) | 2 | 7 | -17 | i | -10 | 4 | -25 | 5
CC(=O)OC(C(=O)N1CCOCC1)c1c(F)cccc1F (centres undefined) | -11 | -4 | -9 | i | x | 4 | -53 | 1
CC1CCCCN1CC(=O)NC(c1ccccc1)c1ccccc1 (centres undefined) | 1 | 2 | -1 | i | x | -2 | -15 | 9
O=C1c2ccccc2C(=O)N1CC1c2ccccc2CCN1C(=O)N1CCOCC1 (centres undefined) | 1 | 4 | -3 | i | -2 | 10 | x | 1
CN1CCN(S(=O)(=O)c2cccc(C(=O)Nc3sccc3C(N)=O)c2)CC1 | -2 | -2 | -18 | x | -12 | x | x | x
C[C@@H]1CN([C@H](C)CO)C(=O)CCCn2nncc2CO[C@@H]1CN(C)C(=O)NC1CCCCC1 | 3 | 5 | x | x | -20&-3&-3 | x | 3 | x
O=C(NCCN1C(=O)C2C3C=CC(C3)C2C1=O)Nc1ccccc1 (centres undefined) | 10 | 9 | 1 | i | -19 | -7 | -9 | 5
CCCSc1nc2ccccc2n1CC(=O)O | -8 | 0 | -9 | i | x | -7 | 6 | 0
O=C(NCC1CCCO1)c1ccc2c(c1)N(Cc1ccc(F)cc1)CCS2 (centres undefined) | -5 | -2 | -18 | i | -21 | 7 | 9 | 4
C/C(=N/NS(=O)(=O)c1ccc(C)cc1)c1ccc2c(c1)OCO2 | -1 | 2 | -12 | i | -11 | -4 | 8 | -6
COc1cccc(N2[C@@H](CC(C)=O)c3ccc(/C=C/C(C)=O)cc3S2(=O)=O)c1 | 13 | -5 | 22 | i | -18 | x | -51 | x
COc1ccc(CN2CCN(C(=O)c3cc(C4CC4)nn3-c3ccccc3)CC2)cc1F | 5 | -8 | x | x | -10 | x | 5 | x
Cc1cc(C(=O)COC(=O)c2ccc3c(c2)OCO3)c(C)n1CC1CCCO1 (centres undefined) | -3 | 0 | -6 | i | x | -2 | -36 | 50 | eIF4H inh retest=38;PABP polyA inh retest=19
O=C1N=C(N2CCOCC2)S/C1=C\c1ccc(-c2ccccc2Cl)o1 | -5 | -3 | -21 | i | -8 | 3 | -3 | -9
CN(C)S(=O)(=O)c1cccc(C(=O)Nc2cc(Cl)cc(Cl)c2)c1 | -2 | -13 | 3 | i | -19 | 0 | 3 | -7
Fc1ccc2nc(Nc3nc4cc5c(cc4s3)OCCO5)sc2c1 | -4 | -3 | 50 | i | -7 | 11 | -74 | -13
Cc1ccc(-c2nnc3sc(C4COc5ccccc5O4)nn23)cc1 (centres undefined) | 0 | 0 | -11 | x | -13 | 0 | x | 3
CC1CCC(=O)N(CCSc2ccccc2)CC1 (centres undefined) | 0 | -2 | 0 | i | -25 | -12 | -30 | -2
CC(=O)c1ccc(COC(=O)c2cc3ccccc3oc2=O)cc1 | -1 | 2 | -17 | i | -5 | -12 | -4 | -8
COC(=O)c1c(C)[nH]c(C(=O)OCC(=O)N2c3ccccc3NC(=O)C2(C)C)c1C | 0 | -1 | x | i | 1 | -8 | 10 | -7
COc1ccc(NC(=O)C2=C(C)NC(=O)NC2c2cccc(OC)c2OC)c(OC)c1 (centres undefined) | 7 | 6 | -16 | i | 5 | 1 | -37 | -4
O=C(N=C1SC2CS(=O)(=O)CC2N1c1cccc(Cl)c1Cl)C1CCCO1 (centres undefined) | 0 | -2 | -20 | i | -4 | -2 | 2 | -6
COc1cc(S(=O)(=O)N2CC(=O)Nc3ccccc32)ccc1NC(C)=O | -3 | 3 | -8 | i | -12 | -14 | -7 | -2
CCOc1ccc(CC(=O)N/N=C(\C)c2cccnc2)cc1OCC | 6 | -1 | -6 | i | 2 | -14 | -5 | -4
COc1ccc(NC(=O)CN(C)C(=O)Cc2ccc(S(=O)(=O)N3CCOCC3)s2)cc1 | 5 | 4 | -8 | i | 0 | x | -12 | x
NNC(=O)c1ccc(N2CCCCCC2)c([N+](=O)[O-])c1 | 6 | 3 | -2 | i | -11 | -2 | -11 | -4
Cc1ccc(Nc2nc(NCc3ccco3)c3ccccc3n2)cc1 | -3 | -26 | 56 | i | -15 | 10 | -16 | -10
CCOC(=O)C1CCN(C(=O)CN2C(=O)COc3ccc(C(C)(C)C)cc32)CC1 | -1 | 1 | -4 | i | -10 | -9 | -1 | 10
CCCCn1cnc2cc(NCc3ccncc3)ccc21 | 9 | -4 | -18 | i | -1 | 8 | -34 | 0
CCOC(=O)NC(=O)C(/C=N/c1sccc1C(=O)OC)=C(\C)O | -4 | 2 | -6 | i | x | u | -3 | u
Cc1cc(C)c2nc(C(F)(F)F)nc(NCCCN3CCCC3=O)c2c1 | 3 | -8 | -1 | i | -19 | 7 | u | -1
O=C(N/N=C/c1ccc(N2CCOCC2)o1)c1cccc(C(F)(F)F)c1 | 2 | 7 | -3 | i | -7 | 18 | -51 | -5
COc1cccc(-c2nnc(SC(C(=O)c3c[nH]c4ccccc34)c3ccccc3)n2C)c1 (centres undefined) | 0 | -6 | 46 | i | x | 8 | -11 | -7
CC(=O)c1ccc(N2CCN(C(=O)COc3ccccc3F)CC2)c(F)c1 | 6 | 2 | -15 | i | 24 | 5 | -26 | 4

A portion of the library; the hit share may differ from the screen's.
